Calb FLC: affects C. albicans growth with fluconazole. 300,000 tested, 0.57% active. C. albicans CaCi-2 (fluconazole-resistant clinical isolate) + fluconazole, Alamar Blue growth, 48 h. growth inhibition, % (concentration not given with the values). AID 1979;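 active = most replicates above 75%; inconclusive = exactly half above 75%; inactive = most below 75%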;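 also: all wells also contain fluconazole at 8 µg/ml as a sub-toxic cotreatment; 0% = median of DMSO wells and 100% = median of geldanamycin control wells; wells of about 8 µL received 7.5 nL stock; the first replicate is given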
AF4-AF9 inh: blocks AF4 peptide binding to human AF9; P42568; AlphaScreen, biotin-AF4 peptide binding to FLAG-AF9; inhibition, % at 10 µM; 350,000 tested, 0.47% active; AID 651704;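 active = every replicate reaching a set inhibition limit, whatever the replicate mean, cut at about 25% in these data; inconclusive = mean inhibition reaches that limit but some replicates miss it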;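 also: 0% = plate neutral control median and 100% = total signal loss; the record names both 10 and 1 µM as test concentration; the first replicate is given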
Target sequence (P42568 whole entry, looked up): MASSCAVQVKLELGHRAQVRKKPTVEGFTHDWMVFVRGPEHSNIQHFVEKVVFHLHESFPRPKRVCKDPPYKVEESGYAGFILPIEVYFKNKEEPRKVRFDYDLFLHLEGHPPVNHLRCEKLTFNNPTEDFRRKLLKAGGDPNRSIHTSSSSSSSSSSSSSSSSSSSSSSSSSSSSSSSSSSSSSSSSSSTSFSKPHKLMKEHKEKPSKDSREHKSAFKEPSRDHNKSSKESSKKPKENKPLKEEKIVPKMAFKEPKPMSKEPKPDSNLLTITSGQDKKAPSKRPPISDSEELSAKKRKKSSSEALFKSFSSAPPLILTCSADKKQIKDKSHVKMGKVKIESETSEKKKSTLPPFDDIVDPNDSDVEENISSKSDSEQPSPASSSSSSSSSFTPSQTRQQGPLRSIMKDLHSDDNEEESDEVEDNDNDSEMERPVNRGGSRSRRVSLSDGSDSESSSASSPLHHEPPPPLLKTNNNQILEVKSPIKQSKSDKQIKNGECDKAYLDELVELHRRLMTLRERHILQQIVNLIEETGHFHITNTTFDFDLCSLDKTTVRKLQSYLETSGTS
T cruzi repl: T. cruzi replication inhibition; inhibition, % (no concentration beside the values); T. cruzi beta-gal in NIH3T3, luminescence, 90 h; AID 1885; 300,000 tested, 1.4% active;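 active = mean inhibition across valid replicates above about 55%, limit read from the data; inconclusive = mean below that limit but half or more replicates reach it; inactive = mean below it, under half of replicates reach it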;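 also: signal also drops with host cell toxicity which is not excluded here; 0% = plate median of DMSO wells and 100% = zero luminescence signal; higher percent means less beta-gal luminescence so fewer parasites; stock transfer was 50 nL into about 50 µL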
Beta apoptosis: beta cell apoptosis inhibition; INS-1E cytokine-induced death, ATP luminescence, 48 h; percent of positive-control rescue, neutral wells zero; protection from apoptosis, % (test concentration not listed); 300,000 tested, 0.8% active;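 active = all replicates at 75% or more, or half of them and the mean; inconclusive = half reach 75% but not the mean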;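 also: 0% = cytokine-treated negative control wells and 100% = positive control rescue; higher means more ATP so stronger rescue from cytokine killing; wells of about 40 µL received 100 nL stock; the first replicate is given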
A1 inh: inhibitors of the anti-apoptotic protein A1, read as caspase activation; MEF A1-2A-BIM cells, Caspase-Glo 3/7 luminescence, 3 h; percent of clofoctol response, vehicle zero; caspase activation, % (no concentration beside the values); 330,000 tested, 0.066% active;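 active = over half of replicate activation scores above 10%, or exactly half above 10 with the replicate mean above 10; inconclusive = replicate mean below 10 yet half the replicates above 10; inactive = over half of replicates below 10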;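 also: wells of about 30 µL received 50 nL stock; many hits fall short of the cut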
LANA-H2A inh: blocks KSHV LANA binding to histone H2A/H2B; cell-free LANA-H2A/H2B peptide, fluorescence polarization; Q9QR71; 320,000 tested, 0.6% active; inhibition, % (no concentration beside the values); AID 2629; in the data active = inhibition mostly above about 10%, no sharp cut-off; inactive = mostly below about 6.7%;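 also: stock transfer was 7.5 nL into about 10 µL; 0% = median of vehicle wells and 100% = median of positive control wells; one replicate is shown; the record names a cut of 25% in any replicate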
Vif A3G: HIV-1 Vif–A3G interaction blockers – biochemical, TR-FRET, GST-Vif 1-94, biotin-A3G peptide, dose response retest, primary screen (AID 1117319); TR-FRET GST-Vif / biotin-A3G peptide binding; higher % means a stronger effect; test concentration not given here; strong numbers were not always called active; inhibition, %, or IC50 in µM where a hit was titrated; 260,000 tested, 0.57% active;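 active = above the screen mean plus three standard deviations and confirmed in dose response; inconclusive = results disagree or hit not tested in dose response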;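 also: Vif residues 1-94 fused to GST binding biotinylated APOBEC3G peptide 110-148; 0% = full assay without inhibitor and 100% = GST in place of GST-Vif; retest series ran down from 100 µM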
RanGTP-Impb inh: inhibitors of RanGTP-importin-beta interaction, primary screen, biochemical, FRET, CFP-Ran, YFP-importin-beta, homogeneous; inhibition, % (no concentration beside the values); cell-free CFP-Ran/YFP-importin-beta FRET ratio; AID 2216; 300,000 tested, 1.1% active;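 active = most replicates above 15%; inconclusive = exactly half above 15%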;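 also: 0% = DMSO wells and 100% = Ran loaded with GDP instead of GTP; wells of about 40 µL received 100 nL stock; the first replicate is given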
* marks the source's active call; other numbers are inactive results; ? = inconclusive; nt = not tested or not shown; & = joins results of further samples.

Sequence of screens – Calb FLC	AF4-AF9 inh	T cruzi repl	Beta apoptosis	A1 inh	LANA-H2A inh	Vif A3G	RanGTP-Impb inh
COc1cc(OC)c(NC(=O)C2CCCN2C(=O)OCc2ccccc2)cc1Cl (stereo not given)
→ 0	1.1	26	-6	-0.2	0.6	nt	-0.9
COc1ccc(OCCCON2C(=O)c3ccccc3C2=O)cc1
→ 5	nt	-8	-4	-0.2	0.8	1%	3.1
O=C(c1cc(COc2ccc3ncccc3c2)on1)N1CCCC1
→ -4	-2.7	12	42	-3.4	3.3	19%	-0.5
Brc1ccccc1OCCCCn1cnc2ccccc21
→ 3	1.7	34	41	-0.7	0.9	4%	4.1
CNC(=O)COC(=O)c1cc(NC(=O)c2ccco2)c(OC)c(OC)c1
→ -1	nt	-2	-1	0.5	-14	-6%	-2.8
O=C(COC(=O)c1nc(Cl)ccc1Cl)Nc1ncc(Cl)cc1Cl
→ 7	-18	1	-5	0.2	-0.6	-17%	0.9
O=C(O)CSc1ncnc2nc[nH]c12
→ 18	nt	7	4	-1.2	1.0	28%	nt
O=C(c1cccc(C(F)(F)F)c1)C1CCCN(C(=O)C2CCOCC2)C1 (stereo not given)
→ -2	-7.0	-2	-5	-0.3	-3.2	5%	-5.5
N/C(=N\OC(=O)CCC1CCCCC1)c1cccc([N+](=O)[O-])c1
→ -20	nt	-2	-3	-0.4	4.4	-7%	1.1
COc1ccc(CNC(=O)Nc2cccs2)cc1OC
→ -3	nt	-8	-5	-0.2	1.4	30%	-0.7
COCn1c(-c2ccc(OC)cc2)nc2ccccc21
→ 8	nt	-8	2	-7.7	-3.6	-3%	3.5
CN(C#N)c1nc(Cl)nc(Nc2cccc(Cl)c2)n1
→ -4	nt	-10	-11	-1.3	-9.4	nt	-2.3
COc1ccc(C(=O)Nc2ccc(C3=NNC(=O)CC3C)cc2NC(=O)c2ccc(OC)cc2)cc1 (stereo not given)
→ -6	5.5	-13	2	0.2	-6.5	25%	3.5
Cc1c(Br)c([N+](=O)[O-])nn1CC(=O)NC1CCCCCC1
→ -4	-3.4	3	-4	0.3	1.3	nt	3.9
O=C(Nc1cccc2c1CCCC2)c1ccccc1Br
→ 50	0.0	1	nt	0.2	2.6	nt	3.3
COc1ccc(-n2cnc(N)c2C(=O)c2cccc([N+](=O)[O-])c2)cc1
→ 1	4.7	-4	-14	0.7	10	22%	-2.8
O=C(NN1CCOCC1)c1cc(-c2ccccc2)nc2ccccc12
→ -2	nt	-8	-7	0.4	-1.9	0%	-4.2
COc1cccc(CNc2ncnc3cc(OC)c(OC)cc23)c1
→ -20	nt	25	-5	0.0	-3.6	2%	2.1
CC1(C)COC(/C=C/c2ccc([N+](=O)[O-])cc2)=N1
→ 4	nt	-4	-20	0.5	13	17%	2.7
CN1CCN(NC(=O)c2ccc(Cl)c(S(=O)(=O)Nc3ccc(Cl)cc3)c2)CC1
→ -2	12	2	1	-0.7	3.2	29%	4.6
COc1ccc(NC(=O)CN(Cc2ccco2)Cc2ccco2)cc1S(=O)(=O)N1CCCCC1
→ nt	5.4	nt	3	-0.8	0.9	5%	nt
COCCCNCC(O)COc1ccccc1F (stereo not given)
→ 2	0.1	-16	-6	0.9	1.3	0%	-0.3
CN(C)c1ccc(/C=N/NC(=O)c2ccco2)cc1
→ -17	-8.1	-2	9	-7.2	-2.0	5%	0.5
COc1ccc(S(=O)(=O)Nc2ccc3c(c2)OCCO3)cc1OC
→ -1	-4.7	-11	0	-0.6	-1.5	nt	-2.6
Cc1cccc2[nH]c3c(N4CCN(C(=O)c5ccco5)CC4)ncnc3c12
→ -10	nt	1	7	0.8	2.8	-3%	0.4
NNC(=O)Nc1cccc(C(F)(F)F)c1
→ 13	1.2	-7	-3	-1.7	6.7	-5%	-0.3
O=C(Cn1c(=O)n(CC(=O)NCc2ccccc2)c2ccccc21)NCc1ccccc1
→ -2	nt	-3	-5	-0.2	1.1	0%	3.6
COc1ccc(S(=O)(=O)N2CCC(C(=O)NCc3ccncc3)CC2)cc1C
→ -6	-0.9	4	-3	-0.9	5.0	nt	1.8
Cc1cccc(C)c1NC(=O)NC1(C(=O)NCc2ccncc2)CCCCC1
→ 1	-2.0	-10	-3	0.1	-3.1	nt	-1.6
CCOc1cc(C2C(C(C)=O)=C(C)Nc3ncnn32)ccc1O (stereo not given)
→ 1	nt	-3	-6	-0.6	-0.6	-9%	-1.3
CC(=O)Nc1ccc(-c2cn3cc(C)ccc3n2)cc1
→ 1	nt	3	-3	0.7	4.0	-5%	-0.6
Cc1c(C(=O)OCC(=O)Nc2ccc(N3CCOCC3)cc2)oc2ccccc12
→ 0	-2.1	-1	5	0.7	-2.3	nt	nt
COCCn1c(CN2CCN(c3ccccc3)CC2)nc2c1c(=O)n(C)c(=O)n2C
→ -3	nt	-20	-1	-0.7	7.1	nt	-1.8
O=C(N/N=C/c1ccncc1)c1ccc(NC(=O)c2cccc(Cl)c2)cc1
→ -6	0.8	1	nt	-0.3	0.3	-6%	4.7
Cc1nc2ccc(NC(=O)CCS(=O)(=O)c3ccccc3)cc2s1
→ 7	-2.4	-18	-2	-0.2	0.3	nt	-0.9
O=C(/C=C/c1ccco1)Nc1nnc(-c2ccco2)s1
→ -4	-2.1	-10	-9	-0.4	-0.5	-6%	11
CCC(C)(C)NC(=O)C(c1ccncc1)N(Cc1ccc(C)cc1)C(=O)c1csnn1 (stereo not given)
→ 14	nt	13	-4	0.3	4.5	7%	-1.0
Cc1nnc2c(Oc3ccccc3)nc3ccccc3n12
→ -1	nt	-7	-3	0.9	-4.8	7%	-0.8
O=C(N/N=C/c1ccc[nH]1)c1ccc(COc2cccc3cccnc23)cc1
→ -22	5.6	16	100*	0.6	13	9%	2.0
O=C(CCn1c(=O)c2ccccc2n(CC(=O)NC2CCCC2)c1=O)NCc1ccco1
→ -8	nt	-3	4	0.3	3.4	1%	-6.0
Cc1nc2ccccc2c(=O)[nH]1
→ 5	nt	-13	-4	0.7	0.3	-7%	1.8
N#Cc1c(NC(=O)CSc2nnc(-c3ccco3)n2-c2ccccc2)sc2c1CCC2
→ -19	nt	8	-6	1.3	4.1	17%	2.3
COc1ccc(C(=O)C(OC(=O)CNC(=O)c2ccco2)c2ccccc2)cc1 (stereo not given)
→ -2	nt	-12	-1	-1.1	2.4	-1%	3.8
CCN(C(=O)COC(=O)CSc1cc(C)c2ccccc2n1)c1ccccc1
→ -6	-3.8	-10	-14	1.1	-1.8	-5%	1.0
COc1cccc(NC(=O)c2cc(CN3C(=O)c4ccccc4C3=O)ccc2OC)c1
→ -5	-22	12	-3	-0.2	-4.6	nt	-3.0
C/C(=N\NC(=S)NCc1ccccc1)c1ccc(Cl)s1
→ -22	2.6	5	1	0.4	-0.6	5%	-4.8
Clc1ccccc1-c1nc2ccccc2c2nncn12
→ -8	nt	-20	-2	1.5	0.9	30%	0.7
NC(=O)CC(NC(=O)Cc1cccc2ccccc12)c1ccc(NC2CCC2)c([N+](=O)[O-])c1 (stereo not given)
→ -1	-4.1	-16	-8	-0.3	-0.9	nt	0.7
COc1cc(OC)cc(C(=O)NNC(=O)c2cc(=O)[nH]c3ccccc23)c1
→ -7	-6.4	-4	nt	0.5	-6.0	-7%	-0.9
Cc1c(NC(=O)/C(C#N)=C/c2ccc(-c3ccc(Cl)cc3)o2)c(=O)n(-c2ccccc2)n1C
→ -2	nt	-27	-2	0.9	-0.2	9%	8.1
Cc1cc(C)n2c3c(c(C#N)c2n1)CC(C)(C)OC3
→ -1	nt	-4	-3	0.3	-2.2	6%	5.2
COC(=O)CSc1nnc(-c2ccco2)n1-c1ccc(C)cc1
→ 0	nt	-3	-5	-0.2	-0.8	0%	8.5
COC(=O)c1ccccc1C(=O)N(c1ccccc1)c1ccccc1
→ 0	0.5	-12	-2	-0.2	-0.4	nt	3.2
NC(=O)c1nsc(C(=O)N(CC(=O)NCc2ccc3c(c2)OCO3)C2CCCCC2)c1N
→ -5	nt	-6	4	0.2	2.7	-5%	1.2
CCOC(=O)Cc1csc(NC(=O)CCCc2ccccc2)n1
→ -7	1.5	1	0	0.3	-2.0	-6%	-1.7
CCOC(=O)C(NC(C)=O)(Nc1ccc(S(=O)(=O)Nc2cc(C)nc(C)n2)cc1)C(F)(F)F (stereo not given)
→ -10	nt	0	-2	-0.6	-0.4	4%	0.1
COc1ccc(NC(=O)C2OC3OC(C)(C)OC3C3OC(C)(C)OC23)cc1 (stereo not given)
→ -7	-6.8	-4	1	0.9	27*	3%	1.5
O=C(NCc1ccc(Cl)cc1)c1cc2c(nc3sccn32)s1
→ 1	nt	3	-3	0.3	0.7	-69%	-1.5
O=C(CN1CCN(c2ccccc2)CC1)Nc1nccs1
→ -10	nt	-12	-10	0.3	-3.1	22%	-4.0
Cc1sc2nc3c(SC(C)C(=O)O)cc(C(=O)c4ccccc4O)cn3c(=O)c2c1C (stereo not given)
→ -19	nt	23	-8	0.3	-346	nt	-1.6

(more compounds)
Sequence of screens – Calb FLC	AF4-AF9 inh	T cruzi repl	Beta apoptosis	A1 inh	LANA-H2A inh	Vif A3G	RanGTP-Impb inh
COc1ccc(NS(=O)(=O)c2ccc(OC)c(OC)c2)cc1OC
→ -9	nt	-12	-2	-0.6	2.0	18%	3.2
O=C(CSc1nc(-c2ccco2)cc(C(F)(F)F)n1)Nc1ccc2c(c1)OCO2
→ 1	nt	-3	-3	0.2	3.0	10%&-4%	0.8
Cc1ccc(OCc2nnc(SCC(=O)N3c4ccccc4Sc4ccc(Cl)cc43)o2)cc1
→ 1	-1.5	10	1	-0.6	-2.1	-2%	-2.2
COc1cccc(C2C(C(=O)/C=C/c3ccco3)=C(O)C(=O)N2CCN2CCOCC2)c1 (stereo not given)
→ 19	-1.4	-16	nt	0.7	-1.9	?	3.6
Nc1ncnc2c1ncn2C1CCC(CO)C(O)C1 (stereo not given)
→ -5	-1.2	-8	-4	0.1	-0.1	0%	4.9
O=c1oc2ccccc2c(O)c1Sc1ccc(Cl)cc1
→ -3	-1.8	-18	-12	0.2	1.6	nt	-1.9
COCCNC(=O)CSc1nnc(-c2ccccc2F)n1Cc1ccccc1
→ 6	-2.5	-10	2	-0.1	2.2	-3%	0.1
COc1cccc(-c2nnc(NC(=O)C3CCCCC3)o2)c1
→ 5	?	-5	-10	0.2	-3.2	-2%	3.8
O=C1CN(S(=O)(=O)c2ccc([N+](=O)[O-])cc2)CC(=O)N1
→ 7	7.2	3	-5	-0.1	4.2	nt	3.5

Structures listed so far with a COOH group:
Sequence of screens – Calb FLC	AF4-AF9 inh	T cruzi repl	Beta apoptosis	A1 inh	LANA-H2A inh	Vif A3G	RanGTP-Impb inh
O=C(O)CSc1ncnc2nc[nH]c12
→ 18	nt	7	4	-1.2	1.0	28%	nt
Cc1sc2nc3c(SC(C)C(=O)O)cc(C(=O)c4ccccc4O)cn3c(=O)c2c1C (stereo not given)
→ -19	nt	23	-8	0.3	-346	nt	-1.6

Bioassay records: PubChem, several laboratories
